# VDR inh – blocks the human vitamin D receptor. Potency, µM, for inactives: max response, negative = inhibition, usual class: inhibitors. 400,000 compounds, 0.93% hits. AID 504847. VDR-SRC2-3 peptide fluorescence polarization, 2 h. P11473; active = well fitted inhibition curve with a large enough effect; inconclusive = small, poorly fitted or top-dose-only effect, or another doubt; inactive = no such curve, though single readings can be large or run the other way; also: series mostly up to about 120 µM
# Target sequence (P11473 whole entry, looked up): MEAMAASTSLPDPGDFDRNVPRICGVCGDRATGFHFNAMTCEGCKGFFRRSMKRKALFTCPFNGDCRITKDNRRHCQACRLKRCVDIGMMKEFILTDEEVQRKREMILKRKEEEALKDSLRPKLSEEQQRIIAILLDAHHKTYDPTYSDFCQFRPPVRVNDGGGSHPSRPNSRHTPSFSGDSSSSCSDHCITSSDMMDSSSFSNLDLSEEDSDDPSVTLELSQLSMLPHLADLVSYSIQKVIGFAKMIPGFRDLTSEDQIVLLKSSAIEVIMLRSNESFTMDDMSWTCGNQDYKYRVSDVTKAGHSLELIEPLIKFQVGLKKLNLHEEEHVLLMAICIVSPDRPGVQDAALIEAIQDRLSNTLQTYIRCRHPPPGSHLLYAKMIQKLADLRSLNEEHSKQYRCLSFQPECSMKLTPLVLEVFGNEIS
#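 Inhibition of the VDR/SRC2-3 peptide interaction is quantified by fluorescence polarization. Compounds (23 nl, pintool) incubate with the reagents for 2 hours at ambient room temperature.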
# * marks the source's active call; other numbers are inactive results; ? = inconclusive; & = joins results of further samples; [ ] = remark or other dose. % is scaled to controls: 0 for no effect and ±100 for the full control effect; potency is read from the fitted curve at half-maximal effect. This is a subset; rates above refer to the full screens.
VDR inh | molecule
-13% | COc1ccc(Nc2nc(C)nc(N)c2S(=O)(=O)c2ccccc2)cc1
-8% | CCOC(=O)c1sc(NC(=O)CSc2nc(-c3ccco3)cc(C(F)(F)F)n2)c(C(=O)OC)c1C
-3% | O=C(Nc1cnccn1)C1c2ccccc2Oc2ccccc21
10% | CCc1ccccc1NC(=O)c1ccc2snnc2c1
-26% | O=C(Nc1nccs1)C1CCCN(S(=O)(=O)c2cccnc2)C1 (stereo unspecified)
-9% | CC(C)(C)c1ccc(C(=O)N2CCC(=O)N(C(CO)Cc3ccccc3)CC2)cc1 (stereo unspecified)
0% | COc1ccc(NC(=O)CCNS(=O)(=O)c2ccc3c(c2)CCCC(=O)N3)cc1
79µM* | CCc1ccc(NC(=O)CSc2ccc(-c3ccco3)nn2)cc1
-4% | CCC1CCCCN1C(=O)COc1cccc2c1CCN(C)C2=O (stereo unspecified)
-9% | Cc1c(OCC(=O)N(C)C)ccc2c(-c3ccccc3)cc(=O)oc12
-4% | CCCNCc1cc(Br)ccc1OCC(=O)NCCc1ccccc1
-8% | O=C(c1cc2c(=O)n3ccccc3nc2s1)N1CCN(Cc2ccc3c(c2)OCO3)CC1
19% | CC(Nc1ccc(Cl)cc1)c1cc(Cl)ccc1O (stereo unspecified)
-7% | O=C(COc1cccc2cccnc12)N/N=C1\SCC(=O)N1CCc1ccccc1
-10% | COc1ccc(NC(=O)c2c(Cl)cnn2C)c(C)c1

# Given as labelled records: 4 of the compounds above
O=C(Nc1cnccn1)C1c2ccccc2Oc2ccccc21
  VDR inh: -3%

CCc1ccccc1NC(=O)c1ccc2snnc2c1
  VDR inh: 10%

O=C(Nc1nccs1)C1CCCN(S(=O)(=O)c2cccnc2)C1 (stereo unspecified)
  VDR inh: -26%

CC(C)(C)c1ccc(C(=O)N2CCC(=O)N(C(CO)Cc3ccccc3)CC2)cc1 (stereo unspecified)
  VDR inh: -9%

# Later entries
VDR inh | molecule
5% | Cc1noc(C)c1NC(=O)Nc1ccc2c(c1)C(=O)N([C@H](C)CO)C[C@H](C)[C@@H](CN(C)C(=O)NC1CCCCC1)O2
-11% | O=C1CCC(c2ccccc2)N1C(=O)c1cccnc1 (stereo unspecified)
11% | O=C(COC(=O)c1ccc(S(=O)(=O)NCc2ccco2)cc1)NCC1CCCCC1
-19% | O=C(c1cc(Br)ccc1O)N1CCN(S(=O)(=O)Cc2ccccc2)CC1
7% | Clc1ccc(-c2nnc3cccc(Cl)n23)c(Cl)c1
-15% | O=C(CSc1nncn1-c1cccnc1)N1CCOCC1
14% | c1ccc(C2C3=C(CCCC3)Nc3ncnn32)cc1 (stereo unspecified)
2% | COc1cccc(CNS(=O)(=O)c2cc(-c3cc(C)no3)ccc2C(C)C)c1
-14%&-5% | O=C(CC(=O)c1ccccc1)c1ccccc1
-19% | COc1ccc(-c2nnc(SCC(=O)Nc3cc(S(=O)(=O)N4CCCCC4)ccc3Cl)n2N)cc1
24% | COc1cc(C(=O)NCC(C)C)c([N+](=O)[O-])cc1OC
9% | CCCS(=O)(=O)N1CCC(C(=O)NCC2CCCO2)CC1 (stereo unspecified)
-1% | Cc1cccc(NC(=O)Cn2ccn(-c3ccc4c(c3)OCCO4)c(=O)c2=O)c1
-10% | O=C(O)c1ccc(Nc2nc(-c3cc4ccccc4oc3=O)cs2)cc1O
8% | CCCCn1c(-c2ccc(C)cc2)c(C)n2c3c(=O)n(C)c(=O)n(C)c3nc12

# Already shown: entries from further up.
VDR inh | molecule
7% | Clc1ccc(-c2nnc3cccc(Cl)n23)c(Cl)c1
-15% | O=C(CSc1nncn1-c1cccnc1)N1CCOCC1
14% | c1ccc(C2C3=C(CCCC3)Nc3ncnn32)cc1 (stereo unspecified)
2% | COc1cccc(CNS(=O)(=O)c2cc(-c3cc(C)no3)ccc2C(C)C)c1
-14%&-5% | O=C(CC(=O)c1ccccc1)c1ccccc1
-19% | COc1ccc(-c2nnc(SCC(=O)Nc3cc(S(=O)(=O)N4CCCCC4)ccc3Cl)n2N)cc1

# (more compounds)
VDR inh | molecule
13% | CCOCCCNC(=O)C1CCC(=O)N1CCc1ccccc1 (stereo unspecified)
17% | O=C(NCC1CCCO1)C(=O)NCC(c1ccco1)N1CCN(c2ccc(F)cc2)CC1 (stereo unspecified)
15% | O=C(NCCC1=CCCCC1)c1ccc2c(c1)ncn2-c1cccc(Cl)c1
3% | CCNC(=O)c1ccc(-n2nc(C(F)(F)F)c3c2CCCC3)cc1
10% | FC(F)(F)c1ccccc1NC(=S)N1CCCCCC1
8% | Cn1c(=O)n(C)c2cc(N3CCOCC3)c(NC(=O)c3c(F)cccc3F)cc21
-20% | COc1ccc(C/C(C)=N/NC(=S)Nc2ccc(C(C)C)cc2)cc1
8% | COc1cccc(N(CC(=O)Nc2cccnc2)S(C)(=O)=O)c1
-12% | CC(C)(C)NC(=O)CSc1nccn1Cc1ccccc1
19% | CCN1CCc2c(sc(-n3cccc3)c2C(C)NC(=O)Nc2ccc(Br)cc2)C1 (stereo unspecified)
? | CC(=O)NNC(=O)CC(=O)Nc1nc(C23CC4CC(CC(C4)C2)C3)cs1
1% | CC(C)c1ccc(N(C(=O)c2csnn2)C(C(=O)NC(C)(C)C)c2cccnc2)cc1 (stereo unspecified)
-13% | COc1ccc(CC(=O)NC(C)CCc2ccccc2)cc1OC (stereo unspecified)
-16% | O=C(NCc1ccc(Cl)cc1)C1CCCN(c2ncnc3c2nc2n3CCCCC2)C1 (stereo unspecified)
12% | COC(=O)c1ccccc1NC(=O)c1ccc(-c2nc(CSc3ccc(C)cc3)c(C)o2)cc1
-17% | CCOC(=O)NCCc1c(C)nc2c(c(C)nn2C(C)(C)C)c1C
21% | O=C(CCn1c(=S)[nH]c2cc3c(cc2c1=O)OCO3)NCc1ccccc1Cl
37%[activator] | CCn1c(-c2ccc([N+](=O)[O-])cc2)n[nH]c1=S
9% | CCOc1ccc(S(=O)(=O)N(C)CC(=O)NCc2ccco2)cc1
7% | CCCCNC(=O)c1cc2c(=O)n3cccc(C)c3nc2n(Cc2ccccc2)c1=N
-10% | CCOC(=O)CCSc1nc(C)c2cc(C)c(C)cc2n1
7% | COC(=O)c1cc2sccc2n1CC(=O)Nc1cc(OC)cc(OC)c1
-3% | CC(C)Oc1cccc(C(=O)C2CCCN(S(=O)(=O)C(C)C)C2)c1 (stereo unspecified)
10% | COc1cc(CCC(=O)OCC(=O)Nc2ccc(Br)cc2F)cc(OC)c1OC
? | COc1cccc2cc(C(=O)C3=C(O)C(=O)N(Cc4ccco4)C3c3cccnc3)oc12 (stereo unspecified)
1% | O=C(c1cccc(Cl)c1)c1nn(-c2ccccc2)c(=O)cc1C(F)(F)F
10% | Cc1c(C(=O)NC(c2ccccn2)C(F)(F)F)oc2c(F)cccc12 (stereo unspecified)
-10% | O=C(COC(=O)c1cccnc1Cl)Nc1ccc2c(c1)OCO2
-7% | Cc1ccc2ncccc2c1N
8% | Cc1c(O)nc(SCC(=O)Nc2ccc(Cl)cc2Cl)n(-c2ccc(F)cc2)c1=O
3% | Cc1ccc(-n2c(-c3ccncc3)n[nH]c2=S)cc1C
? | COc1ccc(NC(=O)CCc2nc3cccnc3n2-c2ccccc2)cc1Cl
-5% | COc1cc(NC(=O)COC(=O)c2nc3nc(C)cc(C)n3n2)cc(OC)c1
13% | Cn1nnc2cc(NC(=O)Nc3cccc(C(F)(F)F)c3)ccc21
5% | C[C@@H](NC(=O)[C@@H]1Cc2ccccc2CN1)C(=O)NC1CCCCC1
12% | Cc1ccc(C)n1-c1ccc(C(=O)NCc2ccncc2)cc1
3% | CCOc1ccccc1NS(=O)(=O)c1ccc(OC)c(OC)c1
-1% | COc1ccc(NCCc2ccccn2)cc1
4% | O=C(Nc1ccc(C(=O)N2CCCCC2)cc1)Nc1cccc(Cl)c1
-23% | Cc1ccc(C)n1CCN1CCN(C(=O)c2ccc(Cl)cc2)CC1
18% | CCN(C(=O)CCN1C(=O)S/C(=C\c2ccccc2)C1=O)C1CCS(=O)(=O)C1 (stereo unspecified)
? | CC(=O)c1cccc(NS(=O)(=O)c2ccc(-c3cnc(C4CC4)o3)cc2)c1
-11% | Cc1ccc(S(=O)(=O)C(C#N)c2nc3ccccc3nc2OCCO)cc1 (stereo unspecified)
-9% | COC(=O)C1=C(C)N(Cc2ccccc2)C(=S)N[C@H]1c1ccc(Br)cc1
5% | Cc1onc(-c2ccccc2)c1NC(=O)N(CCC(=O)O)Cc1ccccc1

# Filtered by structure: the entries above with a thiophene ring, fused or not.
VDR inh | molecule
-8% | CCOC(=O)c1sc(NC(=O)CSc2nc(-c3ccco3)cc(C(F)(F)F)n2)c(C(=O)OC)c1C
-8% | O=C(c1cc2c(=O)n3ccccc3nc2s1)N1CCN(Cc2ccc3c(c2)OCO3)CC1
19% | CCN1CCc2c(sc(-n3cccc3)c2C(C)NC(=O)Nc2ccc(Br)cc2)C1 (stereo unspecified)
7% | COC(=O)c1cc2sccc2n1CC(=O)Nc1cc(OC)cc(OC)c1

# Later entries:
VDR inh | molecule
4% | N/C(=N\N=C\c1cccs1)SC1CC(=O)N(c2cccc([N+](=O)[O-])c2)C1=O (stereo unspecified)
-9% | COc1ccccc1N1CCN(C2=CC(=O)CCC2)CC1
-15% | CN(C)S(=O)(=O)c1cccc(NC(=O)CN2C(=O)NC(CCc3ccccc3)C2=O)c1 (stereo unspecified)
-3% | CCC(Sc1ncnc2sc3c(c12)CCCC3)C(=O)OCC(C)C (stereo unspecified)
-13% | O=C(CCCO)CCCCCCCCC[C@H]1N[C@H](CO)[C@@H](O)[C@@H]1O
-12% | CN(Cc1ccc(Cl)cc1)C(=O)c1ccc(S(=O)(=O)NCc2ccco2)cc1
15% | CC1CC(CCN)(c2ccccc2)C(C)CN1C (stereo unspecified)
-15% | Cc1cc2[nH]cnc2c([N+](=O)[O-])c1C
15% | CCOc1ccc(C(=O)Nc2cccc(-n3cnnn3)c2)cc1OCC
-1% | O=C(NCCCN1CCN(c2ccccc2F)CC1)C1CCC(=O)N1C1CCCCC1 (stereo unspecified)
9% | O=C(O)c1cccc(NC(=O)c2ccc(Cl)c(S(=O)(=O)N3CCCCCC3)c2)c1
13% | CCN1CCN(C(=O)C(C)Nc2ccc(OC)cc2OC)CC1 (stereo unspecified)
3% | COCCCNC(=O)CCc1c(C)nc2nc(-c3cc(OC)cc(OC)c3)nn2c1C
10% | O=C(Nc1cccc(C(=O)O)c1)/C(=C/c1ccccc1)NC(=O)c1cccc(Br)c1
14% | O=C(Nc1ccncc1)c1ccc(NS(=O)(=O)c2ccc3[nH]c(=O)[nH]c3c2)cc1
-14% | O=C(CN1CCN(Cc2ccccc2Cl)C1=O)NCCc1ccc(Cl)cc1
1% | CCCn1c(SCC(=O)Nc2cccc(S(=O)(=O)NC3=NCCCCC3)c2)nc2ccccc2c1=O
3% | Cc1nc(C(=O)NNC(=O)c2ccc(Cl)cc2)cs1
6% | Cc1ccc2c(c1)CC(C)N2S(=O)(=O)c1nnc(NC(=O)C(C)C)s1 (stereo unspecified)
10% | Cc1cc(C)nc(-n2nc(C)c3c2N(Cc2ccccc2C)C(=O)CC3c2ccc(Cl)cc2)n1 (stereo unspecified)
11% | Cc1cc(NC(=O)Cn2cnc3c2c(=O)n(C)c(=O)n3C)n(-c2ccccc2)n1
-3% | Cc1cc2occ(CC(=O)N(C)CC(=O)Nc3c(C)cccc3C)c2cc1C
8% | Cc1ccc(C)c(SCC(=O)NC(=O)NC2CCCC2)c1
-12% | N#Cc1ccc(C23CC4(C2)[C@H](CN(Cc2ccc(C(F)(F)F)cc2)[C@@H]4c2ccccc2)C3c2ccccc2)cc1 (stereo partly specified)
4% | Cc1cccc(NC(=O)c2cccc(S(=O)(=O)Nc3ccccc3C(=O)O)c2)c1
23% | Cc1nn(C)c(C)c1/C=N/NC(=O)c1csc2ccccc12
-11% | CCOC(=O)c1c(C)[nH]c(C)c1S(=O)(=O)N1CCN(c2cccc(C(F)(F)F)c2)CC1
4% | O=C(COC(=O)c1ccccn1)NC(=O)c1ccccc1
4% | Cc1ccc(Cn2c(N3CCN(CCO)CC3)nc3c2c(=O)n(C)c(=O)n3C)cc1
? | NC1=NC(=O)NC1(c1ccccc1)c1ccccc1

# Some of these compounds in order of molar mass, rising:
VDR inh | molecule
4% | O=C(COC(=O)c1ccccn1)NC(=O)c1ccccc1
6% | Cc1ccc2c(c1)CC(C)N2S(=O)(=O)c1nnc(NC(=O)C(C)C)s1 (stereo unspecified)
-12% | N#Cc1ccc(C23CC4(C2)[C@H](CN(Cc2ccc(C(F)(F)F)cc2)[C@@H]4c2ccccc2)C3c2ccccc2)cc1 (stereo partly specified)

# Carrying on:
VDR inh | molecule
-10% | Cc1ccc2[nH]c3c(=O)n(CCN4CCNCC4)cnc3c2c1
-9% | FC(F)(F)c1cc(Cl)c2nnc(C(F)(F)Cl)n2c1
4% | COC(=O)C(Cc1c[nH]c2ccccc12)NC(=O)C1CC1 (stereo unspecified)
-29% | N#CCc1cccnc1Sc1ccc(Cl)cc1
-7% | CC1(C)CC(=O)C2=C(C1)N(Cc1ccco1)C(=O)C2(NC(=O)C1CCCCC1)C(F)(F)F (stereo unspecified)
-15% | CC[C@]12c3[nH]c4ccccc4c3CCN1C(=O)C(CC(=O)NCCN1CCOCC1)C[C@@H]2C(=O)N1CCN(C(=O)c2ccco2)CC1 (stereo partly specified)
-21% | CCCCCNC(=O)c1cn(CC)c2cc(N3CCN(C)CC3)c(F)cc2c1=O
-3% | Cc1cc(Cl)c(OCCOCCN2CCN(C)CC2)c(Br)c1
-7% | Cc1ccc(C(=O)Nc2nc3n(n2)C(c2ccccc2)CC(=O)N3)cc1 (stereo unspecified)
-23% | Cc1nc2c(C(=O)NCCc3ccc(Cl)cc3)c[nH]n2c(=O)c1Cc1ccccc1F
-1% | Cn1c(=O)c2sccc2n2c(CCCC(=O)NC3CCCCC3)nnc12
-3% | CN(C)C(=O)CSc1nnc(-c2ccco2)n1-c1ccccc1
